Compound activity as filed in PubChem.
Vaccinia mCherry – inhibitors of vaccinia virus infection (mCherry reporter signal); Potency, µM (titrated, usually from 36.5 µM), without a hit: at the top dose activity change, negative = inhibition, actives largely listed as inhibitors; actives 0.63% (n = 310,000); Vaccinia virus mCherry reporter infection, fluorescence; about a quarter of the inactives have no number; active = well fitted inhibition curve with a large enough effect; inconclusive = small, poorly fitted or top-dose-only effect; inactive = no such curve, though single readings can be large or run the other way; tested in A549 cells; further: nearly all actives have a fitted effect of over 35% in size; inactives centre near -10
VACV Venus inh – inhibitors of vaccinia virus (Venus reporter) | Vaccinia virus Venus reporter expression, fluorescence | Potency, µM (highest dose often 36.5 µM), without a hit: at the highest dose activity change, negative = inhibition, hits mostly inhibitors | actives 0.46% (n = 330,000); active means well fitted inhibition curve with a large enough effect; inconclusive means small, poorly fitted or top-dose-only effect; inactive means no such curve, though single readings can be large or run the other way; tested in A549 cells; further: nearly all actives have a fitted effect of over 30% in size; inactives centre near -10
The depositor's hits bear a star; i = inactive; u = inconclusive; x = no result given; & = joins results of further samples; [ ] = dose if it differs, or a comment. On the % scale 0 is the no-effect control and ±100 the full control effect; potency means the concentration at half of the fitted maximal effect. Not a hit list. About 0.87% of those tested had a hit in this group.

Molecule,Vaccinia mCherry,VACV Venus inh
Cc1cc2c(cc1C)N[C@]1(C[C@H]3CCCC(=O)N4CC[C@@H](C1)[C@@H]34)C(=NC(C)(C)CC(C)(C)C)N2,u,-29%&-8%
COc1ccc2nc(NC(=O)CN3CCN(C)CC3)sc2c1,-15%,-11%
Cc1cc(NC(=O)c2cnn3cccnc23)no1,-17%,0%
COC(=O)c1ccc(-c2cc(C(=O)O)c3cc4c(cc3n2)OCCO4)cc1,x,3%
Cc1ccc2c(CNC3CCCC3)c(C(=O)O)n(Cc3ccc(F)cc3)c2c1,-6%,-4%
CC(C)c1ccc(Nc2nc(NCc3ccco3)nc(N3CCOCC3)n2)cc1,x,u
c1ccc(Cn2nnc3c(N4CCCCCC4)ncnc32)cc1,i,-3%
CC(C)c1nn2c(=O)cc(COC(=O)c3ccccc3NC(=O)C3CCCCC3)nc2s1,i,-17%
CCCCNC(=O)c1ccc(NC(C)=O)c(Cl)c1,-3%,-5%
CN(C)c1ccc(Sc2ccc3nc(N)nc(N)c3c2)cc1,4.5µM*,5µM*
CC1(OC(=O)CCc2ccccc2)C(=O)C=C2C=C(c3ccc(C#N)cc3)N(CCN3CCOCC3)C=C2C1=O (stereo not given),15%,-9%
O=C(COC(=O)CC1CC2CCC1C2)Nc1ccccc1[N+](=O)[O-] (stereo not given),-7%,-7%
CCOc1ccc(-c2cc(C(=O)NCCOC)[nH]n2)c(C)c1,-8%,-3%
COc1ccc(C2(c3ccc(OC)cc3)NC(=O)N(CC(=O)Nc3ccc(C(N)=O)cc3)C2=O)cc1,i,-8%
CC(C)[C@@H](NC(=O)OC(C)(C)C)C(=O)NCC1CCC(C(=O)N[C@@H](Cc2ccccc2)C(=O)O)CC1 (stereo not given in full),i,-2%
CC1CCCC(NC(=O)COC(=O)c2ccccc2C(=O)N(C)C2CCCCC2)C1C (stereo not given),-5%,-24%

Entries shown so far that contain a COOH group (three):
Molecule,Vaccinia mCherry,VACV Venus inh
COC(=O)c1ccc(-c2cc(C(=O)O)c3cc4c(cc3n2)OCCO4)cc1,x,3%
Cc1ccc2c(CNC3CCCC3)c(C(=O)O)n(Cc3ccc(F)cc3)c2c1,-6%,-4%
CC(C)[C@@H](NC(=O)OC(C)(C)C)C(=O)NCC1CCC(C(=O)N[C@@H](Cc2ccccc2)C(=O)O)CC1 (stereo not given in full),i,-2%

Carrying on.
Molecule,Vaccinia mCherry,VACV Venus inh
COc1cc(C)c(C)cc1S(=O)(=O)N1CCN(Cc2ccc3c(c2)OCO3)CC1,x,-17%
Cc1cc(C)c2sc(N(CCN(C)C)C(=O)c3cc(Cl)sc3Cl)nc2c1,i,-4%
COC(=O)c1c(-c2ccc(OC)cc2)oc2ccc(-c3cc(OC)c(OC)c(OC)c3)cc12,-12%,-16%
C=CCn1nc2ccccc2c1OC,-13%,-7%
Cc1ccc(-c2nc(C(=O)N3CCN(c4ccccc4)CC3)c3n2CCCCC3)cc1,u,u
Cc1nc([N+](=O)[O-])cn1CC(=O)c1ccc2c(c1)OCCCO2,-7%,-8%
Cc1cccc(C#CC2=CC(=O)CC(C)(C)C2)c1,-19%,-22%
N#Cc1cccc(Oc2ccc(S(=O)(=O)N3CCCC3)cn2)c1,i,-9%
NCCCCc1ccc2ccc3cccc4ccc1c2c34,i,0%
CCN1CCN(c2c(Cl)cccc2NC(=O)c2ccc(Br)o2)CC1,x,-17%
Cc1ccc(N(CC(=O)Nc2ccc(OC(F)(F)F)cc2)S(=O)(=O)c2c(C)noc2C)cc1,-18%,-16%
COc1ccc(NC(=O)Nc2ccc3c(c2)C(=O)N([C@H](C)CO)C[C@H](C)[C@@H](CN(C)C(=O)Nc2ccc(C(F)(F)F)cc2)O3)cc1,-22%,-15%
CC(C)N1CCN(Cc2ccc(C#CC(C)(C)O)cc2)CC1CCO (stereo not given),0%,-16%
CCN(c1ccc2c(c1)OCO2)S(=O)(=O)c1cc(Br)cc2c1N(C(C)=O)CC2,-2%,-5%
O=C(CC1N=C2c3ccccc3N=C(SCc3ccc(F)cc3)N2C1=O)NCCc1ccccc1 (stereo not given),-26%,-25%
O=C(CCOc1ccc(F)cc1)Nc1nccs1,-9%,-5%
COc1ccc(C(=O)CSc2ccc3nnc(-c4cccnc4)n3n2)cc1,-23%,-30%
CCCC(C(=O)NCc1ccccc1)N(C(=O)Cn1nnc(-c2cccs2)n1)c1ccc2c(c1)OCCO2 (stereo not given),-24%,-12%
C1CCN(Cc2nnnn2CC2CCCO2)CC1 (stereo not given),i,-6%
COc1cc2c(cc1NC(=S)Nc1ccccc1C)oc1ccccc12,-21%,-12%
C=CCn1c(SCC(N)=O)nnc1-c1cc2c(s1)CCC(CC)C2 (stereo not given),-2%,-4%
CCOc1ccccc1NC(=O)C1CCCN(S(=O)(=O)c2ccc(-n3cnnn3)cc2)C1 (stereo not given),i,-13%
O=C(NCc1ccccn1)C(=O)Nc1ccccc1,-28%,-14%
O=[N+]([O-])c1ccc(S(=O)(=O)N2CCN(Cc3ccco3)CC2)cc1,-15%,1%
COc1ccc2c(c1)CC(C(=O)N1CCC(C(N)=O)CC1)CO2 (stereo not given),-8%,-10%
CC1(C(=O)NS(=O)(=O)c2ccc(F)cc2F)CCN1C(=O)c1ccco1 (stereo not given),i,-4%
CCOC(=O)Cn1nnnc1CN1CCN(c2ccc(OC)cc2)CC1,i,-9%
O=c1[nH][nH]c2c1[C@@H](c1ccc(F)cc1)O[C@H](CCc1ccccc1)C2,-26%,-5%
CC(=O)Nc1ccc(NC(=O)COC(=O)c2n[nH]c3ccccc23)cc1,-13%,-6%
CCCc1cc(-c2n[nH]c(=S)n2Cc2ccccc2)cs1,-4%,-7%
Cc1ccc(S(=O)(=O)NC(=O)C2(C)CCN2C(=O)C2(c3ccc(Cl)cc3)CC2)nc1 (stereo not given),-3%,24%
O=c1[nH]c(=S)[nH]cc1Oc1ccc(Cl)cc1Cl,i,-10%
O=C(Nc1ccc([N+](=O)[O-])cc1)Nc1nc(-c2ccc(Cl)s2)cs1,u,5.6µM*
CCc1noc(C)c1C(=O)N1CC(C)SC1=Nc1ccc(Cl)cc1 (stereo not given),-28%,-22%
Cc1cccc(NC(=O)COC(=O)CCc2ccc(S(=O)(=O)N3CCOCC3)cc2)c1C,-3%,-1%
COc1ccc(-c2ccnc3ncnn23)cc1,-15%,-6%
COC(=O)C(C)Sc1ccc2nnc(CCNS(=O)(=O)c3ccccc3)n2n1 (stereo not given),i,-7%
CCN(CC)c1ccc2cc(-c3nnc(Nc4ccc(C)cc4)s3)c(=O)oc2c1,-6%[7.34 µM],153%[activator][7.34 µM]
O=C1c2ccccc2NC(c2cc(Cl)cc(Cl)c2O)N1Cc1cccnc1 (stereo not given),i,-14%
CCCCN1CC[C@H]2C=CC[C@@H](C(=O)NCc3cccnc3)[C@H]2C1=O,-2%,-25%
CCCS(=O)(=O)NC(=O)C1(C)CCN(C(=O)c2ccc(C#N)cc2)C1 (stereo not given),36%[activator],0%
CCC1C(=O)n2nc(-c3ccccc3)cc2N=C1C (stereo not given),i,-12%
Cc1ccc(OCC(=O)OC(C)C(=O)NC2CCCCC2C)cc1C (stereo not given),i,-12%
C/C=C/C1=CC(=O)C[C@H](c2ccc3c(c2)OCO3)C1,-1%,-10%
CC(=O)OC1CCC2(C)C3=C(CCC2C1(C)C)[C@]1(C)CCC(C(C)CCC=C(C)C)[C@]1(C)CC3 (stereo not given in full),-11%,-13%
Cc1ccc(C(=O)OCC(=O)Nc2cc(C(C)(C)C)nn2-c2ccccc2)c(O)c1,-14%,-12%
O=C(Nc1ccnn1C1CCN(Cc2ccc(CO)o2)CC1)c1cccc(F)c1,i,-20%
COc1ccc(N2CCN(Cc3nc4sc(C)c(C)c4c(=O)[nH]3)CC2)cc1,i,-1%

Retrieved by compound from the entries so far (2):
Molecule,Vaccinia mCherry,VACV Venus inh
Cc1ccc(C(=O)OCC(=O)Nc2cc(C(C)(C)C)nn2-c2ccccc2)c(O)c1,-14%,-12%
Cc1ccc(OCC(=O)OC(C)C(=O)NC2CCCCC2C)cc1C (stereo not given),i,-12%

New compounds follow.
Molecule,Vaccinia mCherry,VACV Venus inh
Cn1c(SCC(=O)N2CCCCC2)nc2cccnc21,-10%,-3%
O=[N+]([O-])c1cn(Cc2ccccc2)cn1,i,-1%
COc1ccc(/C=C/C(=O)Nc2cccc(F)c2)cc1,-16%,-4%
Cc1cc(C)cc(C(=O)NCC(=O)OCC(=O)NCC(F)(F)F)c1,-4%,-4%
O=C(Nc1ccc(Cl)cn1)c1ccc(-c2cc(Cl)ccc2Cl)o1,-4%,-10%
Cc1ccc(Nc2cc(C)nn2-c2nc(C)cc(C)n2)cc1,-7%,u
O=C(O)CCSc1nc2ccc(Br)cc2[nH]1,x,-8%
COc1ccc2[nH]c(=O)c(CN(CCN(C)C)C(=O)NCc3ccccc3)cc2c1,x,-2%
C[C@H](O)[C@H](O)[C@H]1CNc2nc(N)[nH]c(=O)c2N1,i,-7%
CCc1ccc(C(=O)N/N=C/c2cccc3ccccc23)nc1,i,-6%
CCN(CC(=O)NCc1ccc(F)cc1)C(=O)CN1CCN(c2ccc(OC)cc2)CC1,-16%,-17%
COc1ccc(-n2c(SCC(=O)N3CCOCC3)nnc2C(C)N2CCCCC2)cc1 (stereo not given),-12%,1%
COC(=O)[C@@H](NC(=O)c1cc(COc2cncc(Cl)c2)on1)c1ccccc1,i,-13%
Cc1ccc(/C=N/NC(=O)CSc2nc3ccccc3n2Cc2ccccc2)o1,-12%,-6%
COc1ccc(C2CC(c3ccc(F)cc3)Nc3nc(N)nn32)cc1 (stereo not given),0%,3%
COCC(=O)Nc1ncc(S(=O)(=O)c2ccc([N+](=O)[O-])cc2)s1,u,-30%
CC(=O)Nc1ccc2nc(C)n(Cc3ccc(Cl)cc3)c(=O)c2c1,-9%,-24%
O=C(NCc1ccco1)c1ccc2c(c1)C(=O)N(Cc1ccccc1)C2=O,-12%,-6%
CC(O)c1ccc(OCCN(C)c2ccccn2)cc1 (stereo not given),-9%,-10%
CC(=NCCc1c(C)[nH]c2ccc(OC(F)(F)F)cc12)C1=C(O)CC(c2ccccc2)CC1=O (stereo not given),-18%,-16%
COc1ccc(C(=O)c2ccc(Cl)cc2Cl)cc1,x,-27%
CCc1ccc(S(=O)(=O)Nc2ccc3[nH]c(=O)sc3c2)cc1,-8%[7.34 µM],-14%[7.34 µM]
CCOC(=O)c1cnc(SC2CC(=O)N(c3ccccc3)C2=O)nc1N (stereo not given),-18%,u
Cc1c(Cl)cccc1NC(=S)N(CCCN1CCOCC1)Cc1ccco1,-8%,-16%
COc1ccc(NC(=O)c2c(NCc3cccc(F)c3)sc3c2CCC3)c(OC)c1,-11%,-8%
O=C(N[C@H]1CCC(=O)N([C@H](CSc2ccc(Br)cc2)Cc2ccccc2)CC1)OCc1ccccc1,u,u
CCCN(Cc1cccs1)C(=O)Nc1cc(Cl)c(OC)cc1OC,-9%,-12%
O=C1C(O)CCN1Cc1ccccc1 (stereo not given),i,-6%
Cc1nn(-c2cc(N3CCNCC3)ccc2[N+](=O)[O-])c(=O)c2ccccc12,-6%,-7%
Cc1nc(/N=C(\N)NC(=O)c2ccccc2)nc2ccccc12,i,-4%
CCN(C(=O)C(NS(=O)(=O)c1cccc2nsnc12)c1ccccc1)c1ccccc1 (stereo not given),-20%,-13%
C=CCOc1ccc(/C=C2\C(=N)N3N=C(S(=O)(=O)CC)SC3=NC2=O)cc1OC,i,-3%
CCCNC(=S)N1CCN(C(c2ccccc2)c2ccccc2)CC1,-16%,-10%
CN1CCC(=NNC(=O)C(=O)NC2CCCCC2)CC1,-15%,1%
COc1ccc(C(=O)NCCNc2nc3cc(C)cc(C)c3cc2C#N)c(OC)c1,-7%,2%
N=c1c2c3c(sc2nc2n1CCCCC2)CCCC3,x,-20%
CC1CC(C)(C)CC2(C1)NC(=O)N(CC(=O)OCC(=O)Nc1cc(S(=O)(=O)N3CCCCC3)ccc1Cl)C2=O (stereo not given),-17%,-11%
CCn1c2ccccc2c2cc(NS(=O)(=O)c3ccccc3C)ccc21,u,u
O=C1NC[C@H](CCCCN2CCN(CCC3CCCCC3)C(=O)C2=O)N(CCc2ccc(O)cc2)C1=O,2%,3%
CCOc1cc(/C=C2\C(=O)NN(c3ccccc3)C2=O)cc([N+](=O)[O-])c1O,i,-5%
CC(C(=O)Nc1ncc2c(n1)CC(C)(C)CC2=O)N1C(=O)c2ccccc2C1=O (stereo not given),x,-9%
CCc1nnc(NC(=O)CSc2ccc(-c3ccc(-n4cccn4)cc3)nn2)s1,-18%,-15%
CC1=C(C(=O)OCc2ccccc2)C(c2ccc(Cl)cc2)NC(=O)N1CCCCCC(=O)O (stereo not given),-13%,-6%
CC(=O)Nc1c(C)nn(-c2ccccc2)c1N1CCC(C(=O)NCc2cccc(F)c2)CC1,-4%[7.34 µM],-8%[7.34 µM]
Cc1ccc(Cl)cc1NC(=S)N1CCC(c2ccccc2)C1 (stereo not given),-3%,-5%
Cc1ccc(S(=O)(=O)N2CCCCC2)cc1NC(=O)CSc1nnc(C2CC2)n1C,-12%,-6%
